RAD54 branch = blocks human RAD54 Holliday junction branch migration | AID 602329 | Q92698 | FAM/BHQ fluorescence | 360,000 compounds, 0.14% hits | inhibition, % at 10.4 µM;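 active = mean normalized replicate activity at least 40 and at least half of replicates scoring 40 or more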;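 also: 0% = median of neutral control wells and 100% = median of positive control wells; inhibitors cause a drop in the FAM fluorescence signal; in these data hits start at about 50%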
ERAP1 inh = blocks human ERAP1 aminopeptidase activity. inhibition, % at 10.7 µM. 340,000 compounds, 0.15% hits. AID 652197. recombinant ERAP1, Leu-AMC fluorescence, 60 min;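 active = mean replicate inhibition of at least 30%, or all replicates individually reaching that 30% level; inactive = mean below 30% and not every replicate reaching it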;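 also: 0% = neutral control wells and 100% = L-leucinethiol positive control wells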
RAD52 anneal inh = inhibitors of human RAD52 DNA annealing; recombinant RAD52 DNA annealing, FRET fluorescence; inhibition, % at 18.7 µM; AID 651710; 360,000 compounds, 0.46% hits; P43351;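 active = every replicate showing at least 50% inhibition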
E-selectin induc = induces E-selectin expression in human endothelial cells; P16581; HUVEC E-selectin immunofluorescence imaging; normalized: neutral wells 0, TNF-alpha wells 100; activation, % at 7.58 µM; 260,000 compounds, 0.37% hits; AID 686992;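 active = mean E-selectin-positive cell signal at least 10% of the positive control, reached in at least 60% of replicates, without over 20% cell loss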;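 also: in these data hits start at about 27%; measured in HUVEC primary endothelial cells; signal is the percent of cells scored E-selectin positive by PE staining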
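System: HUVEC, human umbilical vein endothelial cells; quantity: 3,000 cells/well; buffer or medium: EGM-2 medium, gelatin-coated wells; dosing: single-point compound dose; detection: immunofluorescence imaging; evaluation: % PE-positive cells; benchmarks: TNF-alpha, DMSO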
* = called active by the depositor; nt = no result given.

(1) Cc1ccc(NC(=O)c2sccc2SCc2cccc(C(F)(F)F)c2)cc1
(2) NC(=O)C1CCN(C(=O)Nc2ccccc2)CC1
(3) N#Cc1ccc(CNC(=O)N2CCOCC2)cc1
(4) CN[C@@H]1CC[C@H](c2ccc(Cl)c(Cl)c2)c2ccccc21
(5) C[C@H](CO)N1C[C@H](C)[C@H](CN(C)S(=O)(=O)c2ccc(F)cc2)OCCCC[C@H](C)Oc2ccc(NC(=O)Nc3ccccc3)cc2C1=O
(6) Cc1cc(C)c(/C=C2\C(=O)Nc3ccccc32)[nH]1
(7) CN1CCN(C(=O)c2ccc(NS(=O)(=O)c3ccccc3)cc2)CC1
(8) Nc1nc(Cl)c(N)c(NCC2(CO)CC(CCc3ccccc3)C2)n1 (stereo unspecified)

| screen / no. | 1 | 2 | 3 | 4 | 5 | 6 | 7 | 8 |
| --- | --- | --- | --- | --- | --- | --- | --- | --- |
| RAD54 branch | 3.7 | -10.5 | -7.9 | 9.1 | 4.3 | -23.3 | -3.8 | nt |
| ERAP1 inh | nt | nt | -1.0 | 1.9 | nt | 3.3 | nt | -4.0 |
| RAD52 anneal inh | nt | nt | -10.9 | 37.7 | nt | -39.3 | nt | -32.0 |
| E-selectin induc | nt | nt | 0.1 | 0.2 | 0.1 | 0.2 | nt | -0.2 |

Grouped by structure, the compounds so far with a halogen (four)
(1) Cc1ccc(NC(=O)c2sccc2SCc2cccc(C(F)(F)F)c2)cc1
(4) CN[C@@H]1CC[C@H](c2ccc(Cl)c(Cl)c2)c2ccccc21
(5) C[C@H](CO)N1C[C@H](C)[C@H](CN(C)S(=O)(=O)c2ccc(F)cc2)OCCCC[C@H](C)Oc2ccc(NC(=O)Nc3ccccc3)cc2C1=O
(8) Nc1nc(Cl)c(N)c(NCC2(CO)CC(CCc3ccccc3)C2)n1 (stereo unspecified)

| screen / no. | 1 | 4 | 5 | 8 |
| --- | --- | --- | --- | --- |
| RAD54 branch | 3.7 | 9.1 | 4.3 | nt |
| ERAP1 inh | nt | 1.9 | nt | -4.0 |
| RAD52 anneal inh | nt | 37.7 | nt | -32.0 |
| E-selectin induc | nt | 0.2 | 0.1 | -0.2 |

Continued.
(9) COCc1cc(C)nc(SCC(=O)c2ccc(O)c(O)c2)c1C#N
(10) C[C@@H]1CCCCO[C@@H](CN(C)S(=O)(=O)c2ccc(F)cc2)[C@@H](C)CN([C@H](C)CO)C(=O)c2cc(NC(=O)Nc3ccccc3)ccc2O1
(11) Cc1ccc(S(=O)(=O)n2c(C)nc3ccccc32)cc1
(12) COc1cccc(C(=O)Nc2cc3c(cc2N2CCOCC2)n(C)c(=O)n3C)c1

| screen / no. | 9 | 10 | 11 | 12 |
| --- | --- | --- | --- | --- |
| RAD54 branch | -5.8 | -17.5 | -3.7 | -6.8 |
| ERAP1 inh | 9.4 | nt | -1.3 | 2.2 |
| RAD52 anneal inh | -10.9 | nt | -15.0 | -13.5 |
| E-selectin induc | nt | -0.4 | 0.0 | nt |

Molecules from the list above that have a Cl atom, in the order listed:
(4) CN[C@@H]1CC[C@H](c2ccc(Cl)c(Cl)c2)c2ccccc21
(8) Nc1nc(Cl)c(N)c(NCC2(CO)CC(CCc3ccccc3)C2)n1 (stereo unspecified)

| screen / no. | 4 | 8 |
| --- | --- | --- |
| RAD54 branch | 9.1 | nt |
| ERAP1 inh | 1.9 | -4.0 |
| RAD52 anneal inh | 37.7 | -32.0 |
| E-selectin induc | 0.2 | -0.2 |

Screens deposited in PubChem by Broad Institute.

Not all compounds are listed; the hit share may differ from the screen's.
